# AF4-AF9 inh = MLL-AF4/AF9 protein interaction inhibition. AlphaScreen, biotin-AF4 peptide binding to FLAG-AF9. inhibition, % at 10 µM. 350,000 tested, 0.47% active;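 active = every replicate reaching a set inhibition limit, whatever the replicate mean, cut at about 25% in these data; inconclusive = mean inhibition reaches that limit but some replicates miss it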;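 also: 0% = plate neutral control median and 100% = total signal loss; the record names both 10 and 1 µM as test concentration; the first replicate is given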
# Target sequence (P42568 whole entry, looked up): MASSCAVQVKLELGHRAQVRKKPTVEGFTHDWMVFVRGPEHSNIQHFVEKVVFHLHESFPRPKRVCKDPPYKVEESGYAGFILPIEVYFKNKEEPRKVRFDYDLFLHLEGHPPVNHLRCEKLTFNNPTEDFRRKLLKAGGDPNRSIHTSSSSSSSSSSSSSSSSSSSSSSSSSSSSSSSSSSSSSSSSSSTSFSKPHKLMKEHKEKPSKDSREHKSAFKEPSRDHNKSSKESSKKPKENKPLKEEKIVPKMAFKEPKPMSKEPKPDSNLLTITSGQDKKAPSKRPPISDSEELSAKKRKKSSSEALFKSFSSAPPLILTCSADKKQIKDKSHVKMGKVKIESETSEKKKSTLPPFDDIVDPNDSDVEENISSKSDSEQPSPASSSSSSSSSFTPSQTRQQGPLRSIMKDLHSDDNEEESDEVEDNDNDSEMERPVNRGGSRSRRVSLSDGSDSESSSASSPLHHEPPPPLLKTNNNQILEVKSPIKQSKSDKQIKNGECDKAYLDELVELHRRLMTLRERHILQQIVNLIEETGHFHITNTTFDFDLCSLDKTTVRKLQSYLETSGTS
# rRNA inh HTS = inhibits bacterial ribosomal RNA function over humanized ribosomes | 350,000 tested, 1.6% active | GFP signal change (wild-type ribosome), % (concentration not given with the values) | E. coli WT GFP vs humanized-ribosome RFP mutants, fluorescence, 24 h; hits give low values; DMSO median 0, no signal -100 | AID 720706;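 active = significant combined selectivity score with lowered wild-type GFP, culture density cut under 30%, mutant RFP and density less affected; inactive = any of these conditions unmet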; also: one replicate is shown; some compounds called inactive have numbers as strong as hits
# Vif TR-FRET = HIV-1 Vif–A3G interaction blockers – biochemical, TR-FRET, GST-Vif 1-94, biotin-A3G peptide, dose response retest, primary screen (AID 1117319) | TR-FRET GST-Vif / biotin-A3G peptide binding; higher % means a stronger effect; test concentration not given here; strong numbers were not always called active | inhibition, %, or IC50 in µM where a hit was titrated | 260,000 tested, 0.57% active;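 active = above the screen mean plus three standard deviations and confirmed in dose response; inconclusive = results disagree or hit not tested in dose response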;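 also: Vif residues 1-94 fused to GST binding biotinylated APOBEC3G peptide 110-148; 0% = full assay without inhibitor and 100% = GST in place of GST-Vif; retest series ran down from 100 µM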
# RanGTP-Imp inh = disruptors of Ran-importin-beta complex formation – biochemical, FRET, CFP-Ran, YFP-importin-beta, homogeneous, primary screen. cell-free CFP-Ran/YFP-importin-beta FRET ratio. inhibition, % (concentration not given with the values). 300,000 tested, 1.1% active;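 active = most replicates above 15%; inconclusive = exactly half above 15%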;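 also: 0% = DMSO wells and 100% = Ran loaded with GDP instead of GTP; wells of about 40 µL received 100 nL stock; the first replicate is given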
# Calb FLC = affects C. albicans growth with fluconazole. 300,000 tested, 0.57% active. C. albicans CaCi-2 (fluconazole-resistant clinical isolate) + fluconazole, Alamar Blue growth, 48 h. AID 1979. growth inhibition, % (concentration not given with the values);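 active = most replicates above 75%; inconclusive = exactly half above 75%; inactive = most below 75%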;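 also: all wells also contain fluconazole at 8 µg/ml as a sub-toxic cotreatment; 0% = median of DMSO wells and 100% = median of geldanamycin control wells; wells of about 8 µL received 7.5 nL stock; the first replicate is given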
# T cruzi inh = T. cruzi replication inhibition | T. cruzi beta-gal in NIH3T3, luminescence, 90 h | inhibition, % (concentration not given with the values) | 300,000 tested, 1.4% active | AID 1885;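 active = mean inhibition across valid replicates above about 55%, limit read from the data; inconclusive = mean below that limit but half or more replicates reach it; inactive = mean below it, under half of replicates reach it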;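 also: signal also drops with host cell toxicity which is not excluded here; 0% = plate median of DMSO wells and 100% = zero luminescence signal; higher percent means less beta-gal luminescence so fewer parasites; stock transfer was 50 nL into about 50 µL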
# A1 inh = inhibitors of the anti-apoptotic protein A1, read as caspase activation; 330,000 tested, 0.066% active; caspase activation, % (concentration not given with the values); MEF A1-2A-BIM cells, Caspase-Glo 3/7 luminescence, 3 h; percent of clofoctol response, vehicle zero;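 active = over half of replicate activation scores above 10%, or exactly half above 10 with the replicate mean above 10; inconclusive = replicate mean below 10 yet half the replicates above 10; inactive = over half of replicates below 10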;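 also: wells of about 30 µL received 50 nL stock; many hits fall short of the cut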
# Beta cell apopt = blocks beta cell apoptosis | protection from apoptosis, % (test concentration not listed) | AID 435005 | 300,000 tested, 0.8% active | INS-1E cytokine-induced death, ATP luminescence, 48 h; percent of positive-control rescue, neutral wells zero;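 active = all replicates at 75% or more, or half of them and the mean; inconclusive = half reach 75% but not the mean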;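 also: 0% = cytokine-treated negative control wells and 100% = positive control rescue; higher means more ATP so stronger rescue from cytokine killing; wells of about 40 µL received 100 nL stock; the first replicate is given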
# rRNA inh HTS OD600 = further read-out of rRNA inh HTS, marked with its call; OD600 change, %; measured here: OD600 growth;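 optical density of the mix in the first replicate; 0 = DMSO median and -100 = no signal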
# rRNA inh HTS RFP = recorded beside rRNA inh HTS, whose call it bears; RFP signal change, %; measured here: RFP humanized mutant strains;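 first replicate; 0 = DMSO median and -100 = no signal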
# Numbers without * were called inactive; ? = inconclusive; / = not tested or not shown. Some of the compounds tested; the hit share may differ from the screen's.
SMILES,AF4-AF9 inh,rRNA inh HTS,rRNA inh HTS OD600,rRNA inh HTS RFP,Vif TR-FRET,RanGTP-Imp inh,Calb FLC,T cruzi inh,A1 inh,Beta cell apopt
CCCCCCN(C(=O)CCCCCN1C(=O)NC(c2cccc([N+](=O)[O-])c2)C(C(=O)OCc2ccccc2)=C1C)C(C(=O)NCCCC)c1ccc(OCC(=O)OC)c(C(=O)OC)c1 (stereo not given),1.8,15,13,-2.6,-8%,?,1,39,2.4,0
O=C(NCC(c1ccco1)N1CCc2ccccc2C1)c1ccc(Cl)cc1 (stereo not given),-2.2,12,4,4.8,1%,-1.5,6,3,-0.7,0
O=C(Cn1ccccc1=O)c1cccs1,5.6,2,7,-7.7,-2%,?,0,-14,0.9,2
CCOc1ccc(NC(=O)c2ccccc2NC(=O)c2cccnc2)cc1,-2.6,3,4,-1.0,0%,-2.8,1,-8,0.1,-3
CC(=O)c1c[nH]c2ccc(C)cc2c1=O,5.0,/,/,/,1%,6.8,-1,0,0.4,/
Cc1ccc(-n2c(C(C)n3nc(C)c([N+](=O)[O-])c3C)n[nH]c2=S)cc1 (stereo not given),/,/,/,/,?,5.2,4,-6,0.1,-1
COc1ccc(-c2nc(N)n(C(=O)c3ccccc3Cl)n2)cc1,/,/,/,/,/,-0.8,-13,-8,-0.2,1
O=c1c(Cc2ccccc2)c(O)nc2n1CCS2,/,/,/,/,-6%,?,1,-13,1.7,-2
COc1cc(C(F)(F)F)c(C(=O)NCc2cccc(Cl)c2)cn1,-2.2,-7,-4,0.4,1%,-2.0,-5,-13,-1.2,-6
O=C(Cn1ncn2c(cc3ccccc32)c1=O)NCCc1cccs1,/,/,/,/,-5%,3.3,3,1,1.8,-1
CCC(C)(C)n1nnnc1C(C(C)C)N1CCC(C(N)=O)CC1 (stereo not given),/,/,/,/,-1%,6.8,1,-22,0.7,-9
CCC(C)C(NC(=O)c1ccccc1NC(=O)c1ccc(C)cc1)C(=O)O (stereo not given),-8.4,0,-9,-3.3,-1%,-1.4,25,-7,-5.8,-2
COc1ccc(C(=O)NNC(=O)COc2ccc(Cl)cc2)c(OC)c1,-0.5,0,3,-1.3,/,5.5,-3,-13,1.9,-2
CCSC(=O)NC12CC3CC(CC(C3)C1)C2,-38,8,7,-0.2,13%,/,/,/,0.6,/
O=C(NCCCn1ccnc1)C1CC(c2ccccc2Cl)=NO1 (stereo not given),28*,2,7,-2.0,23%,-4.5,-3,-7,0.2,1
CCCCN(C(=O)CN1CCOCC1)c1c(N)n(CC(C)C)c(=O)[nH]c1=O,-2.6,17,13,-1.9,/,-0.2,-3,-7,0.5,2
Cn1c(N)c(S(=O)(=O)NCc2ccc(Cl)cc2)c(=O)n(C)c1=O,-0.5,/,/,/,-1%,-2.4,2,-17,-0.2,0
CC(/C=C/c1ccc(OCc2ccccc2)cc1)=N\O,/,/,/,/,-5%,3.2,-4,-1,-4.8,3
COC(=O)C(NC(C)=O)(Nc1ccccn1)C(F)(F)F (stereo not given),/,/,/,/,-4%,4.3,-5,-16,-0.3,-3
O=C(/C=C/c1ccc(F)cc1)N1CCN(c2ncccn2)CC1,-1.0,9,14,0.3,-7%,0.7,1,-16,-0.4,3
CC1CCCN(C(=O)COC(=O)/C=C/c2ccc(C(F)(F)F)cc2)C1 (stereo not given),-7.5,-6,-21,-4.2,/,/,/,/,-0.2,-4
CCN(CC)c1ccc(C=NCCNS(=O)(=O)c2ccc(C)cc2)cc1,0.4,3,6,-0.4,/,-5.4,3,-20,0.6,-2
COc1ccc(C(=O)Nc2ccccc2C(=O)NC(Cc2c[nH]c3ccccc23)C(=O)O)cc1 (stereo not given),-11,31,28,2.1,8%,4.0,-3,-10,-0.2,-7
COC(=O)c1sc(=S)n(-c2cccc(Cl)c2)c1N,-7.5,24,6,-10,-2%,-0.3,39,-4,-0.1,-11
CC(C)[C@H](NC(=O)OC(C)(C)C)c1nnc(S(=O)(=O)Cc2c(F)cccc2Cl)o1,2.7,16,3,-4.4,-5%,1.3,-4,-56,-0.4,7

# Later entries:
SMILES,AF4-AF9 inh,rRNA inh HTS,rRNA inh HTS OD600,rRNA inh HTS RFP,Vif TR-FRET,RanGTP-Imp inh,Calb FLC,T cruzi inh,A1 inh,Beta cell apopt
COC(=O)c1ccc(Oc2nc3ccccc3n3c(C)nnc23)cc1,2.0,12,2,4.0,/,4.7,-7,-11,-0.5,-5
O=C1NCCOC(=O)[C@H](Cc2ccc(F)cc2)CC/C=C/C[C@H]1CC(=O)N(CCO)Cc1ccccc1,1.5,3,-5,1.4,/,/,/,/,-0.3,-4
CSc1ccc(/C=C/C(=O)c2ccc(O)cc2)cc1,/,/,/,/,12%,-9.0,42,9,-7.4,-1
CCCCc1cc(=O)oc2c(CN3CCCC3)c(O)ccc12,/,/,/,/,1%,8.1,0,-4,0.5,-4
CCOC(=O)CCc1c(C)c2ccc(O)cc2oc1=O,/,/,/,/,-4%,0.6,-1,-2,-0.1,0
Cc1[nH][nH]c(=O)c1[C@@H](c1ccccc1[N+](=O)[O-])C(C#N)C#N,3.0,1,0,-3.0,-10%,?,-2,-15,-0.1,-3
COCCCNC(=S)Nc1cc2oc3ccccc3c2cc1OC,2.2,-12,-11,-2.5,-2%,?,-20,-39,0.4,-3
Cn1ncc(Br)c1C(=O)N1CCc2ccccc21,8.4,-5,-4,-5.2,/,1.3,23,-5,1.0,-21
COc1ccc(-c2cc(-c3nnc(COC(=O)C4CC4)o3)c3ccccc3n2)cc1OC,/,/,/,/,/,0.4,6,3,-0.5,-4
COc1cc2ncnc(NCc3cccs3)c2cc1OC,0.7,-13,-11,0.0,-14%,4.5,-2,18,1.1,-3
COC(=O)c1sccc1NC(=S)Nc1cc(C)ccc1OC,-20,7,7,0.2,15%,2.5,-3,-16,-0.7,-3
CCNC(=O)c1c(N)sc2c1CCCCC2,-19,/,/,/,/,0.8,10,11,-1.6,0
NC(=O)COc1ccc(NC(=O)c2ccccc2-c2ccccc2)cc1,-1.7,8,12,-2.1,/,-1.1,-1,-11,0.0,1
CCc1[nH]nc(C(=O)NC2CCCN(Cc3ccccc3F)C2)c1C (stereo not given),-5.8,1,0,-2.6,/,6.4,-5,2,-1.0,/
COc1ccc(CC(=O)Nc2ccc(NC(=O)c3ccccc3F)cc2)cc1,1.8,18,15,0.3,/,0.1,-11,-11,-0.6,0
COc1cc(C(=O)Oc2cccc(Nc3ncnc4ccccc34)c2)cc(OC)c1OC,-10,-14,-14,-0.2,>100µM*,-1.9,?,24,-0.1,20
CCN(C[C@H]1N[C@@](CC)(C(=O)OC)[C@H]2C(=O)N(C)C(=O)[C@@H]12)S(=O)(=O)c1ccc(C(F)(F)F)cc1,-0.9,/,/,/,6%,/,/,/,0.3,-5
Cc1ccccc1NC1c2ccccc2C(=O)N1Cc1ccco1 (stereo not given),1.1,3,-6,-0.3,8%,0.3,10,5,-0.2,4
O=C(/C=C/Nc1ccc(S(=O)(=O)Nc2ncccn2)cc1)c1ccc2ccccc2c1,/,-3,-3,-3.3,-4%,0.7,-2,30,-0.1,-3
Cc1sc2nc[nH]c(=O)c2c1-c1ccc(Cl)cc1,-1.2,16,5,1.7,-4%,2.4,-53,-17,0.9,-3
O=C(CCc1nc(-c2ccccc2F)no1)NCCN1CCN(Cc2ccccc2)CC1,/,/,/,/,6%,3.2,5,24,0.7,2
COC(=O)c1ccc(NC(=O)CC2C(=O)N(C)C(=S)N2Cc2ccc(S(N)(=O)=O)cc2)cc1 (stereo not given),0.7,8,-5,-1.5,/,0.8,0,6,0.8,-5
COc1ccc2cc(C(=O)C3CCCN(C(=O)c4cnccn4)C3)ccc2c1 (stereo not given),1.2,-11,-18,-2.4,?,1.4,2,-3,0.3,0
O=C(Cc1csc(NC(=O)Nc2cccc(Cl)c2)n1)NCc1ccccn1,0.3,-52,-57,-8.4,-7%,-1.7,1,-2,0.0,5
Cc1ccc(C(=O)NCCCNC(=O)Cc2ccccc2)cn1,-6.7,3,-8,1.7,/,3.9,-1,0,0.4,-4

# Other compounds follow:
SMILES,AF4-AF9 inh,rRNA inh HTS,rRNA inh HTS OD600,rRNA inh HTS RFP,Vif TR-FRET,RanGTP-Imp inh,Calb FLC,T cruzi inh,A1 inh,Beta cell apopt
Cc1nnc2ccc(-c3cccc(NC(=O)c4ccco4)c3)nn12,0.2,-11,-7,-4.2,8%,-2.3,10,-20,0.3,1
COCCNC(=S)N1CCN(C(=O)C(=O)Nc2ccc(C(=O)OC)cc2)CC1,/,/,/,/,/,?,-2,-12,1.1,-3
CC(C)(C)SCCNC(=O)CN(c1ccc(F)cc1)S(C)(=O)=O,/,/,/,/,6%,?,9,-37,0.5,/
CC1CCN(C(=O)C2CCN(CCCc3ccccc3)CC2)CC1,/,/,/,/,-7%,4.0,-3,5,0.8,5
COc1ccc(-n2nc(C(=O)NCC(=O)NCCC3=CCCCC3)c3ccccc3c2=O)c(OC)c1,-3.0,6,12,-3.5,/,-0.5,97*,6,-0.7,-6
CC1CCN(c2ccc(/C=C(\C#N)c3nn(-c4ccccc4)c(N)c3C#N)cc2[N+](=O)[O-])CC1,/,/,/,/,-3%,-0.2,?,44,2.0,18
N#C/C(=C\c1ccc[nH]1)C(=O)Nc1ccccc1Cl,-3.3,5,-11,-1.0,-5%,-44,-14,-16,-4.8,0
Cc1ccc(CNC(=O)CCc2nc3ccccc3c(=O)[nH]2)cc1,/,/,/,/,-1%,-1.4,-9,0,-0.2,4
O=S(=O)(c1ccccc1F)N1CCN(C(=S)NCc2ccccc2)CC1,0.0,-13,-12,-0.1,19%,0.3,0,3,1.2,-11
O=C(O)CCSc1nnc(-c2cccnc2)n1-c1ccccc1,4.0,13,6,-3.4,-3%,-0.8,2,-11,-0.1,-6
COc1ccc(NC(=S)NCc2ccccc2Cl)c(OC)c1,-5.7,-2,-4,-1.0,/,1.6,-2,-3,0.0,-2
CCN(CC)c1ccc(NC(=O)CCNS(=O)(=O)c2ccc3c(c2)CCC(=O)N3)c(C)c1,4.4,3,3,3.7,/,-1.6,2,19,-0.6,16
COc1ccc(N2CC(O)=C(c3nc(C)cs3)C2=N)cc1,1.7,1,3,-6.1,3%,3.3,10,-29,0.5,0
Cc1ccc(S(=O)(=O)N2CCOCC2)cc1NC(=O)COC(=O)c1ccc(OCc2c(C)noc2C)cc1,-59,-4,-8,-0.1,-1%,-2.6,-20,-4,-0.3,5
COc1cc(S(=O)(=O)NCC2COCCO2)ccc1-n1cnnn1 (stereo not given),/,/,/,/,0%,1.1,7,-9,0.3,1

# Screening data from PubChem.
